# Bioassay records: PubChem BioAssay, several laboratories
# BJeLR lethal: kills HRASV12-expressing BJeLR cells; inhibition, % (concentration not given with the values); 300,000 tested, 0.17% active; BJeLR (HRASV12) viability, CellTiter-Glo ATP luminescence, 48 h; reference of the scale not given here;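 active means replicate mean above 50%; inconclusive means above 50% but judged a plate artefact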;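 further: 50 nL library stock added to about 25 µL; numbers are from one replicate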
# Mtb hypoxia rep: reduces hypoxia-regulated biosensor signal in M. tuberculosis; M. tuberculosis hypoxia-regulated fluorescent reporter, fluorescence; fluorescence inhibition, % (no concentration beside the values); 300,000 tested, 0.1% active; AID 1159583;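 active means 35 to 45% if threefold the growth effect, above 45% if 1.5-fold the growth effect; inactive means the rest, general growth blockers included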;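 further: wells of about 50 µL received 100 nL stock; 0% = vehicle wells and 100% = reference inhibitor wells; whole bacteria with a GFP reporter of the hypoxia response; strong numbers were not always called active; many hits fall short of the cut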
# Bead autofluor: compound fluorescence in toxin protease inhibitor counterscreen | compound autofluorescence counterscreen, microsphere flow cytometry; active compounds read high | fluorescence intensity (concentration not given with the values) | 360,000 tested, 3.1% active;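 active means at least 3 SD above the mean of all compounds, about 16000 in these data; inconclusive means too few beads counted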;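 further: 100 nL of 1 mM stock went into each well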
# Sa RN4220 lethal: kills Staphylococcus aureus RN4220; 330,000 tested, 0.33% active; S. aureus RN4220 growth, OD600, 16 h; inhibition, % (no concentration beside the values); AID 1259311;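 active means z-score of -3 or lower and OD600 up to 0.18 on both plates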;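 further: plate controls were untreated cells for no effect and reference antibiotic for full effect; stock transfer was 100 nL into about 80 µL; one replicate is shown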
# Sa ugtP lethal: growth inhibition of S. aureus ugtP deletion strain; S. aureus RN4220 ugtP deletion, OD600 growth, 16 h; some inactives read as strong as hits; growth inhibition, % (test concentration not listed); 330,000 tested, 0.54% active;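 active means z-score under -3 and OD600 up to 0.15 on both plates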;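 further: plate controls were untreated wells for no effect and antibiotic for full effect; wells of about 80 µL received 100 nL stock; the first replicate is given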
# PrP 5UTR inh: inhibition of PrP 5' UTR reporter expression | cell-based PrP 5' UTR mRNA reporter, plate reader | 340,000 tested, 0.35% active | inhibition, % (test concentration not listed);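 active means every replicate at 50% or more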;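 further: 0 = median of the neutral control wells; tested in H4 reporter cells; numbers are from one replicate; inactives centre near -14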
# Mtb hypoxia rep growth: recorded beside Mtb hypoxia rep, whose call it bears; growth inhibition, %; measured here: M. tuberculosis growth (absorbance);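 0% = vehicle and 100% = reference antibiotic; read after six days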
# Active calls of the source: *; u = inconclusive; x = no result given. An unsorted share of the library; about 4% have a hit in one of these screens.
SMILES,BJeLR lethal,Mtb hypoxia rep,Mtb hypoxia rep growth,Bead autofluor,Sa RN4220 lethal,Sa ugtP lethal,PrP 5UTR inh
Cc1cccc(NC(=O)c2ccc(NS(=O)(=O)c3c(C)noc3C)cc2)c1,0,x,x,4178,-3.9,1,6
CC1NC(=O)N(C)C2NC(=O)N(C)C(c3ccccc3)C12 (configuration not stated),2,5,5,2865,-5.7,0,-12
COc1cc(C=NOCC(=O)Nc2ccc(OC(F)F)cc2)ccc1OCc1ccccc1,x,-1,2,x,14,26,x
CN1CCN(C(=O)c2cc3ccccc3cc2O)CC1,x,8,7,5098,3.7,7,-18
CCOc1cc(C(c2c(C)[nH][nH]c2=O)c2c(C)[nH][nH]c2=O)ccc1OS(=O)(=O)c1ccccc1,-4,12,11,20887*,11,10,-15
CCCCN(C)CCC(=O)Nc1ccc(C)cc1,-5,4,3,2582,6.1,4,-2
Cc1ccccc1NC(=O)Cc1nc(COC(=O)c2cc([N+](=O)[O-])ccc2N)cs1,1,7,-4,5999,-5.6,0,-15
N#C/C(=C\c1ccc(O)cc1)C(=O)NCc1cccc(Cl)c1,-11,-6,3,3870,-1.1,-4,-14
CCO[C@H]1OC(C(=O)NCc2ccccc2)=C[C@@H](c2ccc(Br)cc2)[C@@H]1CCCO,6,x,x,3702,x,x,-9
CCNc1nc(OCCNC(C)=O)nc(N(C)C)n1,-1,1,1,3796,-0.3,1,4
COC(=O)c1[nH]c2cc(OC)ccc2c1NC(=O)CCN1CCN(Cc2ccc3c(c2)OCO3)CC1,1,6,8,6387,1.3,4,-25
COC(=O)/C=C1/SC(=NC(=O)c2cccc([N+](=O)[O-])c2)NC1=O,17,11,3,5427,5.0,6,-9
CC(C(=O)NCCCn1ccnc1)(c1ccccc1)c1ccccc1,-6,8,12,4142,4.6,12,-21
CCOc1ccc(C(=O)COC(=O)C2CCN(c3ccc(C(F)(F)F)cn3)CC2)cc1,3,3,7,5941,4.0,6,-26
COc1ccc2cc(C(=O)N3CCOCC3)sc(=O)c2c1OC,1,x,x,4728,-1.0,9,-4

# No new results follow: entries from further up.
SMILES,BJeLR lethal,Mtb hypoxia rep,Mtb hypoxia rep growth,Bead autofluor,Sa RN4220 lethal,Sa ugtP lethal,PrP 5UTR inh
Cc1ccccc1NC(=O)Cc1nc(COC(=O)c2cc([N+](=O)[O-])ccc2N)cs1,1,7,-4,5999,-5.6,0,-15
N#C/C(=C\c1ccc(O)cc1)C(=O)NCc1cccc(Cl)c1,-11,-6,3,3870,-1.1,-4,-14
CCO[C@H]1OC(C(=O)NCc2ccccc2)=C[C@@H](c2ccc(Br)cc2)[C@@H]1CCCO,6,x,x,3702,x,x,-9
CCNc1nc(OCCNC(C)=O)nc(N(C)C)n1,-1,1,1,3796,-0.3,1,4

# Next records.
SMILES,BJeLR lethal,Mtb hypoxia rep,Mtb hypoxia rep growth,Bead autofluor,Sa RN4220 lethal,Sa ugtP lethal,PrP 5UTR inh
O=C(CSc1ccc(-c2ccc(Cl)cc2)nn1)N1CCCc2ccccc21,-2,3,1,9612,3.4,13,-18
COC(CNC(=O)c1cc(C)nn1-c1ccccc1)OC,-1,3,-4,3355,3.2,7,-16
C=CCC1C(=O)NC(=S)NC1=O,-3,-4,1,2337,8.4,7,-18
c1ccc(Cc2nc3ccccc3o2)cc1,0,6,7,12382,4.3,2,-10
O=C(Cc1n[nH]c(=O)c2ccccc12)OCC(=O)c1ccc(F)cc1,-1,4,-4,6338,0.0,2,-5
O=C(NCc1ccc(N2CCCC2=O)cc1)c1ccc(F)cc1,5,-6,10,4252,3.2,-2,-15
Nc1ccc(C2(c3ccc(N)cc3)c3ccccc3-c3ccccc32)cc1,1,50*,7.4*,1989,2.8,-1,-15
O=C(O)c1cccnc1C(=O)N1CCc2c([nH]c3ccccc23)C1C(F)(F)F (configuration not stated),3,-1,-1,6256,0.9,0,x
CCN(N=O)C(Cc1ccccc1)CN(N=O)C(Cc1ccccc1)CN(C)N=O (configuration not stated),x,18,5,x,9.8,15,x
CCOC(=O)c1nn(-c2cccc(C)c2)c2nc(-c3ccccc3)c(C#N)c(=O)n12,-1,-12,-2,2478,-4.7,1,-17
CC1CCc2c(sc3nc(SCC(=O)O)n(-c4ccccc4)c(=O)c23)C1 (configuration not stated),6,10,11,4265,1.9,7,-20
Cc1cc(NC(=O)c2cc(-c3ccccc3Cl)nc3ccccc23)no1,-1,1,0,5833,4.0,2,-14
COc1ccc(-c2nnc(-c3ccc(N)cc3)o2)cc1,-7,10,7,9135,11,-16,-68
CCn1nc(C)cc1-c1nnc(SCC(=O)Nc2ccccc2)n1CCCOC,-2,2,9,3212,-1.0,-1,-15
O=C(CSc1nnc(-c2cccnc2)n1Cc1ccco1)c1ccc2ccccc2c1,4,20,3,u,8.1,-6,-11

# Given with two lines to a compound: two of the compounds above.
# Below each compound – BJeLR lethal	Mtb hypoxia rep	Mtb hypoxia rep growth	Bead autofluor	Sa RN4220 lethal	Sa ugtP lethal	PrP 5UTR inh
C=CCC1C(=O)NC(=S)NC1=O
 : -3	-4	1	2337	8.4	7	-18
CC1CCc2c(sc3nc(SCC(=O)O)n(-c4ccccc4)c(=O)c23)C1 (configuration not stated)
 : 6	10	11	4265	1.9	7	-20

# Continued.
SMILES,BJeLR lethal,Mtb hypoxia rep,Mtb hypoxia rep growth,Bead autofluor,Sa RN4220 lethal,Sa ugtP lethal,PrP 5UTR inh
O=C(C1COc2ccccc2O1)N1CCn2c(nc3ccccc32)C1 (configuration not stated),12,x,x,5539,1.7,7,-11
CCC(C)NC(=O)CSc1nc2ccccc2c(=O)n1-c1c(C)n(C)n(-c2ccccc2)c1=O (configuration not stated),-4,13,8,4133,9.1,4,-22
O=C(O)c1ccc2c(c1)ncn2C1CCCC1,6,-10,-3,3950,-2.1,-10,-7
Cc1ccc(C2c3[nH]c4ccccc4c3C[C@H]3C(=O)N(c4ccccc4C(=O)N4CCC[C@H]4C(=O)O)C(=O)N23)cc1 (some centres not stated),2,x,x,4958,0.1,7,-4
O=C(c1cc(C2CC2)nn1-c1ccccc1)N1CCN(S(=O)(=O)c2ccccc2)CC1,x,3,-3,5322,-0.5,8,-22
CCOC(=O)Nc1ccc2c(C)cc(=O)oc2c1,-1,3,-6,16452*,1.4,5,-87
CNS(=O)(=O)c1cccc(C(=O)NCC(c2cccs2)N(C)C)c1 (configuration not stated),-10,0,10,22234*,5.4,9,-27
O=C(Cc1ccccc1)NCCN1CCCC1,9,5,-5,4397,-0.6,-5,-10
CC1=NN(C(C#N)c2ccccc2C)C(C)(C)C1 (configuration not stated),2,-4,-2,2291,6.5,7,-19
C=CCn1c(CNC(=O)CCC)nc2ccccc21,-2,-2,7,10535,-7.0,-8,-14
CSCC[C@H](NC(=O)c1ccco1)c1nnc2ccccn12,-2,4,0,5560,1.4,6,-16
Cc1cc(NC(=O)CN(C)CC(=O)Nc2ccc(F)c(F)c2F)no1,x,5,2,x,3.4,6,-14
CCC(C(=O)NCC1CCCO1)N(Cc1ccccc1)C(=O)CNS(=O)(=O)c1ccccc1 (configuration not stated),-8,1,5,5095,0.2,0,-28
COc1ccc(/C=C/C(O)=C2/C(=O)NC3(C)CC2c2ccccc2O3)c(OC)c1OC (configuration not stated),22,-2,6,4815,4.0,9,-32
CCCCn1nnnc1NCc1ccc(OC)c(OC)c1OC,-7,14,6,8069,0.4,3,2

# Rewritten bar-delimited: entries from further up
molecule | BJeLR lethal | Mtb hypoxia rep | Mtb hypoxia rep growth | Bead autofluor | Sa RN4220 lethal | Sa ugtP lethal | PrP 5UTR inh
CCC(C)NC(=O)CSc1nc2ccccc2c(=O)n1-c1c(C)n(C)n(-c2ccccc2)c1=O (configuration not stated) | -4 | 13 | 8 | 4133 | 9.1 | 4 | -22
O=C(O)c1ccc2c(c1)ncn2C1CCCC1 | 6 | -10 | -3 | 3950 | -2.1 | -10 | -7
Cc1ccc(C2c3[nH]c4ccccc4c3C[C@H]3C(=O)N(c4ccccc4C(=O)N4CCC[C@H]4C(=O)O)C(=O)N23)cc1 (some centres not stated) | 2 | x | x | 4958 | 0.1 | 7 | -4

# The results go on.
SMILES,BJeLR lethal,Mtb hypoxia rep,Mtb hypoxia rep growth,Bead autofluor,Sa RN4220 lethal,Sa ugtP lethal,PrP 5UTR inh
Cc1ccc2[nH]cc(CCNC(=O)C3CCCO3)c2c1 (configuration not stated),-4,-2,-7,3550,-1.9,-2,-51
COc1ccc(C(=O)N2CCN=C2SCc2cccnc2)cc1OC,8,x,x,4124,5.4,7,1
Cc1ccc(N=C2NC(=O)CS2)c(C)c1,-3,3,6,3558,-12,-4,-13
Cc1oc(C=NNC(=O)CN(c2ccccc2Cl)S(C)(=O)=O)cc1Br,x,9,6,x,2.3,-4,x
Cc1ccc(NS(=O)(=O)c2c(C)[nH]c(C)c2C(=O)N2CCCC2)cc1,-20,-7,1,4354,1.7,0,-10
O=C(Nc1cccc2cccnc12)c1ccccc1Cl,2,9,2,4114,4.3,8,x
Cn1c(=O)c2c(nc(N/N=C/c3ccc(OC(=O)c4ccco4)cc3)n2Cc2ccccc2)n(C)c1=O,3,x,x,9844,x,x,-4
CCOC(=O)C(NC(=O)Nc1ccc(F)cc1F)(Oc1ccc(F)cc1)C(F)(F)F (configuration not stated),-8,5,7,2120,85*,71,-11
Cc1cc(C)c(NC(=O)C2CCCCN2C)c(C)c1 (configuration not stated),3,4,5,4174,2.2,-2,-21
CC(=O)c1ccc(NC(=O)C2CCCN(S(=O)(=O)c3ccc(-n4cnnn4)cc3)C2)cc1 (configuration not stated),-18,4,5,3930,1.4,6,-33
O=C(NC1CCS(=O)(=O)C1)C1CCCC1 (configuration not stated),15,3,1,6254,6.4,10,-33
CN(C)CC1CSCCC1(O)c1cccc(Cl)c1 (configuration not stated),-5,14,8,4067,6.7,4,-15
CC1Cc2ccccc2N1C(=O)Cn1nnc(-c2ccccc2NC(=O)C2CCC2)n1 (configuration not stated),-1,6,0,7244,0.7,6,-20
CCOC(=O)c1ccccc1NC(=O)COC(=O)CCC(=O)c1ccc(C)cc1,8,6,8,u,3.9,4,-2
COc1ccccc1Cn1c(=S)[nH]c2cc(C(=O)NCCCN3CCOCC3)ccc2c1=O,3,6,9,5953,3.6,6,1

# Single values from the entries so far:
# Cn1c(=O)c2c(nc(N/N=C/c3ccc(OC(=O)c4ccco4)cc3)n2Cc2ccccc2)n(C)c1=O | BJeLR lethal = 3
# CCOC(=O)C(NC(=O)Nc1ccc(F)cc1F)(Oc1ccc(F)cc1)C(F)(F)F (configuration not stated) | Sa RN4220 lethal = 85*
# COc1ccccc1Cn1c(=S)[nH]c2cc(C(=O)NCCCN3CCOCC3)ccc2c1=O | PrP 5UTR inh = 1

# More entries follow.
SMILES,BJeLR lethal,Mtb hypoxia rep,Mtb hypoxia rep growth,Bead autofluor,Sa RN4220 lethal,Sa ugtP lethal,PrP 5UTR inh
CC(NC(=O)c1ccccc1SCC(=O)N1CCCC1)c1ccccc1 (configuration not stated),3,1,4,u,0.5,1,-31
COc1ccc(Cc2nnc(SC)[nH]c2=O)cc1OC,2,x,x,4163,2.2,1,-7
CCCCN(C(=O)CSc1nnc(-c2ccccc2)o1)c1c(N)n(CCC)c(=O)[nH]c1=O,x,30*,67*,7717,2.7,3,-13
O=C(O)c1ccc(CSc2nc3ccccc3c(=O)n2-c2ccccc2)cc1,-4,7,9,3480,47,6,-9
CCN(C(=O)/C=C/c1ccc(OC)cc1)C1CCS(=O)(=O)C1 (configuration not stated),-1,6,1,u,-0.6,8,-19
O=C(COc1cccc2cccnc12)NN=Cc1ccc(O)cc1,x,3,5,x,-0.5,0,x
CCOc1ccc(CCNC(=O)c2ccccc2OCc2c(C)noc2C)cc1OCC,3,5,-1,x,3.4,7,-18
CCOc1ccc(/C=N/Nc2cc(=O)n(C)c(=O)n2C)cc1,5,x,x,2094,x,x,-17
CCNc1nc(NCC)nc(ON=C(C)C)n1,-6,6,10,x,-22,-2,x
